Screens (PubChem BioAssay)
UCH37 DUB inh – blocks the human deubiquitinase UCH37; Q9Y5K5; purified proteasome/UCH37, Ub-AMC cleavage fluorescence; inhibition, % (no concentration beside the values); hit rate 0.33% among 330,000;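 active = mean of two replicates above 20%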;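 note: 0% = compound-free wells with enzyme and 100% = wells lacking proteasome; stock transfer was 100 nL into about 20 µL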
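Material: Human UCH37 enzyme supplied as purified proteasome complex | Schedule: 30 min preincubation with enzyme, 25 min cleavage at room temperature | Detection: AMC fluorescence 355/460 nm | Measure: % inhibition of Ub-AMC cleavage fluorescence | Controls: Wells without proteasome as full block, compound-free enzyme plus substrate as uninhibited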
E coli growth – E. coli growth inhibition | Escherichia coli growth, OD600, 23 h; active compounds read low | OD600 absorbance (no concentration beside the values) | hit rate 0.21% among 330,000 | AID 1053175;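 active = OD600 absorbance below the run mean of sample wells minus 3.6 SD, in any replicate, cut at about 0.56 in these data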;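 note: stock transfer was 300 nL into about 60 µL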
LANA-H2B inh – blocks KSHV LANA binding to histone H2A/H2B; Q9QR71; cell-free LANA-H2A/H2B peptide, fluorescence polarization; inhibition, % (test concentration not listed); hit rate 0.6% among 320,000; in the data active = inhibition mostly above about 10%, no sharp cut-off; inactive = mostly below about 6.7%;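 note: stock transfer was 7.5 nL into about 10 µL; 0% = median of vehicle wells and 100% = median of positive control wells; one replicate is shown; the record names a cut of 25% in any replicate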
Target sequence (Q9QR71 whole entry, looked up): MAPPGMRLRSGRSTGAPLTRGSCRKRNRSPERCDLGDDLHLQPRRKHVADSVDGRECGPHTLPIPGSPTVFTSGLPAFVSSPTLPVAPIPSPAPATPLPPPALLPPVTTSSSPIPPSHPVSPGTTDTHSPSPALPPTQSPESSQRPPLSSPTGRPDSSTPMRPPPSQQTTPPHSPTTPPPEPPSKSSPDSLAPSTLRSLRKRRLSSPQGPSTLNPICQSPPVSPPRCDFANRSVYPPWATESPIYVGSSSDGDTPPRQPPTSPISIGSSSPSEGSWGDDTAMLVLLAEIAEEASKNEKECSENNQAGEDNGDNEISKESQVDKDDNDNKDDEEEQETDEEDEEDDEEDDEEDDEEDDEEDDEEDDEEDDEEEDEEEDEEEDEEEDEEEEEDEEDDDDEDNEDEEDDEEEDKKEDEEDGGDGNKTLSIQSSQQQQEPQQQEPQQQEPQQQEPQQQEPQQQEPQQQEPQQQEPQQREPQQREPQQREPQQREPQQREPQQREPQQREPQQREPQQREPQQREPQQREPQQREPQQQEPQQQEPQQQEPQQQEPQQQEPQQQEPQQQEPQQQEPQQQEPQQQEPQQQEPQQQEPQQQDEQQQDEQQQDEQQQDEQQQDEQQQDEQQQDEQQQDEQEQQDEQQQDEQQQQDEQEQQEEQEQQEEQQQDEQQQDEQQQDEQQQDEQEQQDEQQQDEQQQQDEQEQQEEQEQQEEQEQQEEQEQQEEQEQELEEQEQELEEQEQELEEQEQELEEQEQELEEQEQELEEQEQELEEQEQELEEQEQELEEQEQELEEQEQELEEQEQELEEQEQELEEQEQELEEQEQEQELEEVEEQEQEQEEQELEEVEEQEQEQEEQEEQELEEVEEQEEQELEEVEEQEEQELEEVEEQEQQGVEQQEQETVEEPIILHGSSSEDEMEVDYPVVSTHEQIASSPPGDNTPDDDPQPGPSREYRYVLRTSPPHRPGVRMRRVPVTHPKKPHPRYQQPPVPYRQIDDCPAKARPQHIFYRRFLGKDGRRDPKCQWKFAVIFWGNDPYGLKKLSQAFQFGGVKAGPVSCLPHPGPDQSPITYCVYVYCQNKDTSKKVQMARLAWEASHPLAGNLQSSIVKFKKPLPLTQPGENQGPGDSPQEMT
HNF4A DNA FP – change in binding of human HNF4 alpha to DNA; P41235; HNF4a-FITC DNA binding, fluorescence polarization, 1 h; activity change, % at 10 µM; hit rate 0.3% among 360,000; AID 1224865; in the data active = activity change above about 30%, passing the limit was not always enough;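 note: controls were the assay level and a saturating level of protein; the project sought stronger binding though the title names inhibitors; some compounds called inactive have numbers as strong as hits; positive values seem to mean higher polarization but the record does not say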
Vif A3G – inhibitors of Vif binding to APOBEC3G peptide, primary screen, biochemical, TR-FRET, GST-Vif 1-94, biotin-A3G peptide, dose response retest (AID 1117319) | TR-FRET GST-Vif / biotin-A3G peptide binding; higher % means a stronger effect; test concentration not given here; strong numbers were not always called active | one-dose inhibition, %; IC50 in µM for titrated hits | hit rate 0.57% among 260,000;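 active = above the screen mean plus three standard deviations and confirmed in dose response; inconclusive = results disagree or hit not tested in dose response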;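 note: Vif residues 1-94 fused to GST binding biotinylated APOBEC3G peptide 110-148; 0% = full assay without inhibitor and 100% = GST in place of GST-Vif; retest series ran down from 100 µM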
A1 inh – inhibitors of the anti-apoptotic protein A1, read as caspase activation; MEF A1-2A-BIM cells, Caspase-Glo 3/7 luminescence, 3 h; percent of clofoctol response, vehicle zero; caspase activation, % (no concentration beside the values); hit rate 0.066% among 330,000;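 active = over half of replicate activation scores above 10%, or exactly half above 10 with the replicate mean above 10; inconclusive = replicate mean below 10 yet half the replicates above 10; inactive = over half of replicates below 10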;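 note: wells of about 30 µL received 50 nL stock; many hits fall short of the cut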
B2AR ag – activates human beta-2 adrenergic receptor causing internalization. P07550. Am2.2-beta2AR cells, FAP receptor internalization, flow cytometry; reference of the scale not given here. response, % (test concentration not listed). hit rate 0.43% among 340,000;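 active = response above a set limit, near 3 SD of response in nonfluorescent compounds, cut at about 42% in these data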;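 note: stock transfer was 100 nL into about 11 µL; a reference agonist was the positive control; negative values mostly stem from fluorescent compounds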
* marks the source's active call; other numbers are inactive results; ? = inconclusive; nt = not tested or not shown; & = joins results of further samples. No enrichment for hits (roughly 2.1% active in at least one column).

SMILES	UCH37 DUB inh	E coli growth	LANA-H2B inh	HNF4A DNA FP	Vif A3G	A1 inh	B2AR ag
Cc1cc(=O)oc2cc(NC(=O)C(C)N3C(=O)C4CCCCC4C3=O)ccc12 (stereo unspecified)	-137	0.67	0.6	-0.8	nt	-0.3	1
COc1ccc(NS(=O)(=O)c2cc(NC(=O)c3cc(F)c(F)cc3Cl)ccc2N2CCOCC2)cc1	0.4	0.71	2.9	-1.4	nt	2.0	16
O=C(CN(C(=O)C1CSC(=O)C1)c1ccccc1F)NCc1ccc2c(c1)OCO2 (stereo unspecified)	-1.9	0.65	-0.9	-0.5	6%	-0.1	-7
CCC[C@@H](CN1CCC[C@H]1CN1C(N)=NC[C@@H]1Cc1ccccc1)N1C[C@@H]([C@H](C)CC)N(CCc2ccc(Cl)c(Cl)c2)C1=N	5.3	nt	0.3	4.6	nt	-0.8	2
COC(=O)c1ccc(NC(=O)CCS(=O)(=O)c2ccc(Br)cc2)cc1	-0.1	0.68	0.2	-5.2	nt	-0.2	-12
CC1(C)Cc2c(sc3c2c(=N)n(Cc2ccco2)c(=O)n3CC(=O)Nc2ccc(Cl)cc2)CO1	3.1	0.8	1.1	0.3	-4%	0.4	-1
Cc1c(NS(=O)(=O)c2cccc(C(=O)Nc3ccccc3)c2)c(=O)n(-c2ccccc2)n1C	2.0	0.66	6.4	2.5	26%	0.2	0
O=C(CCNC(=O)c1ccc(Cl)cc1)Nc1ccc(S(=O)(=O)N2CCOCC2)cc1	2.3	0.71	1.2	2.7	nt	?	-2
O=C1C(Cl)=C(N2CCCCCC2)C(=O)N1c1ccccc1	3.3	0.72	-0.8	1.0	5%	0.0	-6
Cc1cc(C)c2nc(N3CCCC(C(=O)N4CCN(c5ncccn5)CC4)C3)sc2c1 (stereo unspecified)	1.9	0.7	1.2	-1.5	-1%	1.2	5

Molecules shown so far with nitrogen in an aromatic ring, in the order listed:
SMILES	UCH37 DUB inh	E coli growth	LANA-H2B inh	HNF4A DNA FP	Vif A3G	A1 inh	B2AR ag
CC1(C)Cc2c(sc3c2c(=N)n(Cc2ccco2)c(=O)n3CC(=O)Nc2ccc(Cl)cc2)CO1	3.1	0.8	1.1	0.3	-4%	0.4	-1
Cc1c(NS(=O)(=O)c2cccc(C(=O)Nc3ccccc3)c2)c(=O)n(-c2ccccc2)n1C	2.0	0.66	6.4	2.5	26%	0.2	0
Cc1cc(C)c2nc(N3CCCC(C(=O)N4CCN(c5ncccn5)CC4)C3)sc2c1 (stereo unspecified)	1.9	0.7	1.2	-1.5	-1%	1.2	5

The list goes on.
SMILES	UCH37 DUB inh	E coli growth	LANA-H2B inh	HNF4A DNA FP	Vif A3G	A1 inh	B2AR ag
CC1CCc2nc(NC(=O)c3cc(C(C)(C)C)nn3C)sc2C1 (stereo unspecified)	-7.2	0.67	-2.3	1.1	-5%	0.0	21
O=C1NC(c2cccnc2)C(C(=O)c2cccs2)C(O)(C(F)(F)F)N1 (stereo unspecified)	1.6	0.68	7.2	1.4	-2%	0.3	2
Cc1csc(Nc2ccccc2C(F)(F)F)n1	7.0	0.66	1.1	-2.3	0%	-0.7	1
Cn1c(=O)n(C)c2cc(CN3C(=O)OC(C)(C)C3(C)O)ccc21 (stereo unspecified)	1.8	0.71	-1.9	-2.4	26%	-0.6	7
Clc1ccc(-n2nnnc2-c2cnc3ccccc3c2-c2ccccc2)cc1	5.3	0.69	-3.1	0.7	-5%	-0.5	7
O=C1c2ccccc2C(=O)c2c1cccc2-n1nnc2ccccc21	-0.3	0.68	8.4	-4.2	-25%	-0.4	-8
CCCS(=O)(=O)N1CCCC(C(=O)NCCN2CCCCC2C)C1 (stereo unspecified)	3.7	0.71	3.0	-1.6	-2%	-0.2	-6
COC(=O)C1=C(C(=O)OC)[C@@H]2N(C)c3ccccc3[C@@]23C[C@@H](C(=O)OC)N(C(=O)c2ccco2)C3=N1	0.7	nt	-3.6	-0.7	nt	2.8	6
COc1ccc(-c2nc3ccccc3c(=O)n2CCN2CCOCC2)cc1	3.0	0.64	0.1	0.3	14%	0.6	-8
O=C1c2ccccc2[C@@H]2C[C@@H](O)[C@H](Nc3cccc(Cl)n3)CCN12	3.3	0.71	nt	0.6	-6%	nt	17

Nothing new here: entries from further up.
SMILES	UCH37 DUB inh	E coli growth	LANA-H2B inh	HNF4A DNA FP	Vif A3G	A1 inh	B2AR ag
O=C1NC(c2cccnc2)C(C(=O)c2cccs2)C(O)(C(F)(F)F)N1 (stereo unspecified)	1.6	0.68	7.2	1.4	-2%	0.3	2
Cc1csc(Nc2ccccc2C(F)(F)F)n1	7.0	0.66	1.1	-2.3	0%	-0.7	1

(listing goes on)
SMILES	UCH37 DUB inh	E coli growth	LANA-H2B inh	HNF4A DNA FP	Vif A3G	A1 inh	B2AR ag
COc1ccc(O)c(C(=O)c2cc(SCC(=O)O)c3nc4sc5c(c4c(=O)n3c2)CCCC5)c1	17	0.65	-1.9	-26	nt	1.9	18
Cn1cc(CNCc2cn(C)nc2-c2ccc(C3CCCCC3)cc2)cn1	3.8	0.66	5.5	0.0	-10%	-0.3	28
Cn1c(=O)n(C)c2cc(C(=O)c3ccccc3)ccc21	0.4	0.74	-0.6	3.8	-1%	-0.3	2
COc1ccccc1OCC(=O)N(Cc1nc(-c2ccc(Cl)cc2)no1)C(C)C	7.2	0.65	-2.4	2.6	-2%	0.7	-9
O=[N+]([O-])c1ccc(S(=O)(=O)NCCS(=O)(=O)N2CCN(c3ccccc3)CC2)cc1	nt	nt	1.1	-2.2	nt	0.9	-2
COc1ccc(Cl)cc1NC(=O)CN1CCc2ccccc21	4.7	0.65	-2.2	-0.6	-2%	-0.1	5
NC(=O)OCC(O)COc1ccc(Cl)cc1 (stereo unspecified)	-1.7	0.63	-5.1	0.1	nt	1.0	0
Cc1ccc(-c2ccc(/C=C3/NC(=O)NC3=O)o2)cc1[N+](=O)[O-]	8.3	0.7	nt	2.8	24%	nt	0
O=C(O)c1ccccc1C(=O)Nc1ccc(-n2nccc2C(F)(F)F)cc1	0.7	0.65	-9.8	3.1	-2%	1.4	7
Cc1noc(C)c1CSc1nc2ccccc2s1	4.6	0.77	-4.1	0.1	-1%	-0.2	25
CC(C)n1c(=S)[nH]c2cc(Cl)ccc21	3.5	0.64	0.0	-2.5	20%	0.8	2
O=C1N(c2ccc(Cl)c(Cl)c2)CN(Cc2ccccc2)CN1n1cnnc1	3.0	0.62	-1.1	0.9	25%	-0.5	-2
COc1ccc(S(=O)(=O)Nc2ccc3c(c2)OCO3)cc1C	-0.7	0.73	2.3	-2.5	>100µM*	-0.5	-3
COc1ccccc1CC(NC(C)=O)C(=O)N1CCN(C(=O)Nc2ccccc2Cl)CC1 (stereo unspecified)	1.4	0.68	-3.4	-0.7	-3%&-10%	0.0	-1
CC1(C)Cc2c(sc3nc4n(c(=N)c23)CCCCC4)CO1	0.8	0.71	-5.1	0.8	-3%	-0.2	-84
C=CCn1c(NCCO)nc2sc3c(c2c1=O)CCC3	5.1	0.67	2.6	1.5	7%	0.4	-3
CC(=O)OCCCn1c(C)[n+](C)c2cc(Cl)c(Cl)cc21	1.5	0.68	-1.1	0.5	nt	0.9	12
COc1cccc(CNC(=O)c2ccccc2SCC(=O)N2CCCC2)c1	-1.0	0.7	-8.0	3.7	2%	0.1	3
CN(C(=O)Cn1cnc2ccccc2c1=O)C1CCS(=O)(=O)C1 (stereo unspecified)	0.8	0.65	nt	-5.7	-1%	-0.4	1
Nc1cc2c(cc1O)CCCC2	1.8	0.67	0.2	15	-5%	0.2	0
Cc1ccc2c(c1)nnn2C1CCN(S(=O)(=O)c2ccc(C(=O)N3C(C)CCCC3C)cc2)CC1 (stereo unspecified)	-1.7	0.72	0.2	-0.3	-8%	0.7	-8
COc1cc2sc3cc(NCCCN4CCOCC4)ccc3c(=O)c2cc1OC	-94	0.69	5.1	4.5	nt	-3.8	14
O=C(CCS(=O)(=O)c1ccccc1F)Nc1ccc(N2CCN(Cc3ccccc3)CC2)cc1	3.9	0.7	5.3	0.3	3%	0.0	-11
COc1ccc(CN2C(=O)c3c(c(C)n(C)c3C)C2C(=O)NC2CCC(C)CC2)cc1 (stereo unspecified)	1.5	0.72	-0.7	4.3	nt	0.0	-5
C=CCOc1ccccc1/C=N/NC(=O)Cc1ccc(C)cc1	nt	nt	13	-1.8	0%	-2.0	-1
O=C(Cn1nnc(-c2ccccc2F)n1)Nc1ccc2c(c1)OCO2	3.7	0.72	-2.7	1.2	12%	-0.2	-11
CCOc1ccc(OCc2cccc(C(=O)N3CCCCCC3)c2)cc1	-1.0	0.69	-2.9	-58	-8%	-0.3	-13
CCCCC1C(=O)N(c2ccccc2)N(c2ccc(O)cc2)C1=O (stereo unspecified)	2.1	0.65	-6.2	1.5	nt	2.7	61*
COC(=O)c1c(C)[nH]c(C(=O)C(C)OC(=O)C2CC2)c1C (stereo unspecified)	1.0	0.67	2.4	-2.9	7%	0.3	4
Cc1cc(NC(=O)CCCOc2ccc(Cl)cc2Cl)no1	4.1	0.66	1.0	-1.3	5%	0.1	5
COc1cccc(C(C(=O)NC2CCCCC2)N(C(=O)c2csnn2)C2CC2)c1 (stereo unspecified)	1.5	0.65	13*	-3.7	nt	-0.1	13
COc1ccc(-c2c(C(=O)O)c(-c3ccccc3)cn2C)cc1	0.5	nt	-3.5	-0.7	nt	0.2	-1
COc1cc(C(=O)OCC(=O)Nc2cc(C)on2)cc(OC)c1OC	0.7	0.68	-0.7	-0.3	-7%	-0.5	1
CCOC(=O)C1C(=O)C=C(c2ccc([N+](=O)[O-])cc2)CC1c1ccccc1 (stereo unspecified)	-0.3	0.67	-0.7	-0.4	1%	-0.2	-5
CCCCC(=O)NC1(C(F)(F)F)NC(=O)N(C)C1=O (stereo unspecified)	1.0	0.7	-3.5	-1.4	6%	1.7	0
COc1ccc(CN2C(=O)CN=C2Nc2ccc(C)cc2C)cc1	0.9	0.65	-2.2	1.9	3%	-0.3	-4
CCN(CC)C(=O)c1ccc2c(=O)n(Cc3cccc(Br)c3)c(=S)[nH]c2c1	0.7	0.66	6.3	nt	nt	-0.4	nt
O=[N+]([O-])c1ccc(C2NS(=O)(=O)N=C3CCCCCN32)cc1 (stereo unspecified)	0.9	0.66	-3.4	0.4	2%	-0.6	-1
Cc1ccc2nc(SCC(=O)OCc3ccccc3)nc(=O)n2c1	-14	0.68	nt	0.1	4%	0.0	2
CCOC(=O)CNC(=O)CNC(=O)Cn1ccc2ccccc2c1=O	-1.5	0.73	-0.2	1.0	-1%	1.4	6
CCCCCC(=O)NNC(=S)NC(=O)c1ccc([N+](=O)[O-])cc1	-4.6	0.63	-0.4	-2.2	-2%	-0.2	6
COc1ccc(C(=O)Nc2ccccc2C(=O)NC(Cc2ccc(O)cc2)C(=O)NNC(=O)c2ccncc2)cc1 (stereo unspecified)	3.6	0.71	3.7	0.8	4%	-0.7	-8
COC(=O)CC(NC(=O)Nc1ccccc1F)c1ccc2c(c1)OCO2 (stereo unspecified)	3.2	0.66	3.2	-1.5	3%	-0.9	1
Cc1ccc(Cn2ccc(-c3cnc(-c4ccccc4)s3)n2)cc1	-177	0.76	9.9	-3.3	0%	0.5	2
CC1CCN(CC(O)COCCC23CC4CC(CC(C4)C2)C3)CC1 (stereo unspecified)	-1.8	0.63	0.0	-2.7	-1%	-0.8	8
Cn1ccsc1=NC(=O)c1ccc(=O)[nH]c1	11	0.72	8.4	-2.3	nt	-0.2	1
CCOc1ccc2nc(N(CCN(CC)CC)C(=O)/C=C/c3cccs3)sc2c1	3.1	0.63	-1.1	3.3	nt	0.5	13
COc1cccc(CNC(=O)c2c(C)nn(-c3ccccc3)c2C)c1	-0.6	0.69	-2.2	0.8	4%	0.4	0
